Ecoli rRNA inh: inhibits bacterial ribosomal RNA function over humanized ribosomes | E. coli WT GFP vs humanized-ribosome RFP mutants, fluorescence, 24 h; active compounds read low; DMSO median 0, no signal -100 | GFP signal change (wild-type ribosome), % (test concentration not listed) | actives 1.6% (n = 350,000);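 active = significant combined selectivity score with lowered wild-type GFP, culture density cut under 30%, mutant RFP and density less affected; inactive = any of these conditions unmet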; also: one replicate is shown; some compounds called inactive have numbers as strong as hits
Calb FLC: affects C. albicans growth with fluconazole; C. albicans CaCi-2 (fluconazole-resistant clinical isolate) + fluconazole, Alamar Blue growth, 48 h; actives 0.57% (n = 300,000); growth inhibition, % (test concentration not listed); AID 1979;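 active = most replicates above 75%; inconclusive = exactly half above 75%; inactive = most below 75%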;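 also: all wells also contain fluconazole at 8 µg/ml as a sub-toxic cotreatment; 0% = median of DMSO wells and 100% = median of geldanamycin control wells; wells of about 8 µL received 7.5 nL stock; the first replicate is given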
AF4-AF9 inh: inhibitors of human MLL-AF4/AF9 interaction; AID 651704; AlphaScreen, biotin-AF4 peptide binding to FLAG-AF9; inhibition, % at 10 µM; P42568; actives 0.47% (n = 350,000);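 active = every replicate reaching a set inhibition limit, whatever the replicate mean, cut at about 25% in these data; inconclusive = mean inhibition reaches that limit but some replicates miss it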;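 also: 0% = plate neutral control median and 100% = total signal loss; the record names both 10 and 1 µM as test concentration; the first replicate is given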
Target sequence (P42568 whole entry, looked up): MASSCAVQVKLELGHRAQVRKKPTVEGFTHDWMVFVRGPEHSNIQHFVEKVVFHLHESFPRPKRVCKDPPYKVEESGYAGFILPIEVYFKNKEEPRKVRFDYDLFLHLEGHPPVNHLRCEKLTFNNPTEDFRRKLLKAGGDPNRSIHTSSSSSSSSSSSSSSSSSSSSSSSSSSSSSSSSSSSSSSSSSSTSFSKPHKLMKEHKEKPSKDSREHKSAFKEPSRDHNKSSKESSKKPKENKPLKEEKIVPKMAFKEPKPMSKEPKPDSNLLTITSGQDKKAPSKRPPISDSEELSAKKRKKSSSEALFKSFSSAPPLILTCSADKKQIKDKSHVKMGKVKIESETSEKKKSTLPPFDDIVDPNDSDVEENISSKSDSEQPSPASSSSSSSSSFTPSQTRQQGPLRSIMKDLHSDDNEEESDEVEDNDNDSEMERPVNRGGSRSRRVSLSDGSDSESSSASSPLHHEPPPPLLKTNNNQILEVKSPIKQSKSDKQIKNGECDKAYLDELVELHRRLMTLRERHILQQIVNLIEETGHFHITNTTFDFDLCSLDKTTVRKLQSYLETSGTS
Beta apoptosis: blocks beta cell apoptosis; INS-1E cytokine-induced death, ATP luminescence, 48 h; percent of positive-control rescue, neutral wells zero; AID 435005; actives 0.8% (n = 300,000); protection from apoptosis, % (concentration not given with the values);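 active = all replicates at 75% or more, or half of them and the mean; inconclusive = half reach 75% but not the mean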;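 also: 0% = cytokine-treated negative control wells and 100% = positive control rescue; higher means more ATP so stronger rescue from cytokine killing; wells of about 40 µL received 100 nL stock; the first replicate is given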
FGF22 binding: FGF22 (human) thermal shift binding; recombinant FGF22 thermal shift, SYPRO orange fluorescence; percent of sucrose octasulfate shift, DMSO zero; calls only at 9.99 µM; actives 1.5% (n = 340,000);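 active = melting point raised past a set limit in the mean and every replicate; inconclusive = no clear call; three in four hits are not shown here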
Target sequence (Q9HCT0 whole entry, looked up): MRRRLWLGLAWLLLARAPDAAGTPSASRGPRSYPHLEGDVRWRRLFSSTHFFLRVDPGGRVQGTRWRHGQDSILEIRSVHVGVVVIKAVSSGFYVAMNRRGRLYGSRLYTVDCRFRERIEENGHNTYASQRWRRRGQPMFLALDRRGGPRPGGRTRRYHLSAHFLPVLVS
ALR H2O2 inh: blocks human ALR sulfhydryl oxidase activity. P55789. purified ALR, DTT oxidation, H2O2 HRP-luminol luminescence. inhibition, % (concentration not given with the values). actives 3.8% (n = 290,000). AID 485317;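 active = mean and each replicate at 75% or more; inconclusive = only one of the two met; inactive = neither met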;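 also: stock transfer was 7.5 nL into about 7.5 µL; 0% = neutral wells and 100% = wells with inactivated enzyme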
Target sequence (P55789 whole entry, looked up): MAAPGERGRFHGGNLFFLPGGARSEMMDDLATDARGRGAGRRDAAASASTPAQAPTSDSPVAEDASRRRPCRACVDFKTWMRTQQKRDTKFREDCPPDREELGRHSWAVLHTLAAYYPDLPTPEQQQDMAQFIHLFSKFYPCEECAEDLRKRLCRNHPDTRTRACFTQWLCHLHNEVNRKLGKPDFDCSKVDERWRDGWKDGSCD
RanGTP-Impb inh: disruptors of Ran-importin-beta complex formation – biochemical, FRET, CFP-Ran, YFP-importin-beta, homogeneous, primary screen; inhibition, % (no concentration beside the values); cell-free CFP-Ran/YFP-importin-beta FRET ratio; actives 1.1% (n = 300,000); AID 2216;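 active = most replicates above 15%; inconclusive = exactly half above 15%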;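 also: 0% = DMSO wells and 100% = Ran loaded with GDP instead of GTP; wells of about 40 µL received 100 nL stock; the first replicate is given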
T cruzi repl: T. cruzi replication inhibition; T. cruzi beta-gal in NIH3T3, luminescence, 90 h; inhibition, % (no concentration beside the values); actives 1.4% (n = 300,000);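 active = mean inhibition across valid replicates above about 55%, limit read from the data; inconclusive = mean below that limit but half or more replicates reach it; inactive = mean below it, under half of replicates reach it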;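 also: signal also drops with host cell toxicity which is not excluded here; 0% = plate median of DMSO wells and 100% = zero luminescence signal; higher percent means less beta-gal luminescence so fewer parasites; stock transfer was 50 nL into about 50 µL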
Ecoli rRNA inh OD600: recorded beside Ecoli rRNA inh, whose call it bears; OD600 change, %; measured here: OD600 growth;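 optical density of the mix in the first replicate; 0 = DMSO median and -100 = no signal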
Ecoli rRNA inh RFP: further read-out of Ecoli rRNA inh, marked with its call; RFP signal change, %; measured here: RFP humanized mutant strains;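 first replicate; 0 = DMSO median and -100 = no signal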
Numbers without * were called inactive; i = inactive; ? = inconclusive; . = not tested or not shown.

SMILES | Ecoli rRNA inh | Ecoli rRNA inh OD600 | Ecoli rRNA inh RFP | Calb FLC | AF4-AF9 inh | Beta apoptosis | FGF22 binding | ALR H2O2 inh | RanGTP-Impb inh | T cruzi repl
COc1cc2c(cc1OC)C(C)N(Cc1ccc3c(c1)OCO3)CC2 (stereo not drawn) | 6 | 2 | 3.1 | -7 | 0.7 | . | i | 5 | 3.5 | 21
CC(C)C(C(=O)NCC1CCCO1)N(C(=O)CNS(=O)(=O)c1ccccc1)C1CCCCC1 (stereo not drawn) | -2 | -6 | -5.4 | 6 | -0.9 | -2 | i | -2 | -2.7 | 9
N#CCSc1ccsc1C(=O)Nc1ccc(F)cc1 | . | . | . | -7 | . | -2 | . | 29 | -3.1 | -20
CCN(CC(=O)Nc1c(F)cccc1F)C(=O)c1cccc(S(=O)(=O)N(C)c2ccccc2)c1 | -9 | -10 | 0.6 | 28 | 1.0 | 2 | i | -8 | 4.7 | -1
CC(C)n1c(=S)[nH]c2cc(Cl)ccc21 | 6 | 6 | 30 | 2 | 14 | 6 | i | 75 | 3.9 | 3
Cc1ccc(NC(=O)Cc2ccccc2)c(C)c1 | . | . | . | -3 | . | -6 | . | 1 | 2.0 | -13
CC(=O)NNc1cc(C)nc(N)n1 | 9 | -1 | 2.7 | -49 | . | -5 | i | 13 | -2.5 | -33
Cc1cc(S(=O)(=O)N2CCCC(C)C2)ccc1-n1cnnn1 (stereo not drawn) | -3 | -2 | -1.0 | -7 | -2.1 | -1 | i | -7 | 0.8 | 12
O=C(N/N=C\c1ccncc1)c1ccccc1O | 13 | 11 | 0.0 | 0 | -0.4 | -4 | . | -4 | 3.1 | -1
COc1ccc2c(c1)C=Cc1ccccc1O2 | . | . | . | 3 | . | -5 | . | 2 | 1.9 | 7
COc1cccc(OCC(=O)N2CCCc3ccccc32)c1 | -5 | -6 | 2.8 | 6 | -3.6 | 8 | i | 0 | -2.8 | -1
CCc1ccc(NC(=O)CSc2nc(O)cc(=O)n2C2CCCC2)cc1 | 4 | 5 | -0.2 | 36 | -2.8 | -3 | i | 99* | -1.0 | 3
c1ccn2cc(-c3ccc4c(c3)OCO4)cc2c1 | 2 | 3 | -1.4 | 26 | 4.1 | . | i | -11 | -1.7 | -3
O=C(N/N=C/c1[nH]c2ccccc2c1Cl)c1cccc(Br)c1 | -18 | -7 | -6.0 | -11 | -2.4 | 1 | i | . | ? | -14
CCO/C(=C/c1sc2ccc(OC)cc2[n+]1CCCS(=O)(=O)[O-])CC | . | . | . | -1 | . | 2 | . | 36 | 0.4 | -7
CCN(CC(=O)NCc1ccc(F)cc1)C(=O)/C=C/c1ccc(S(=O)(=O)N(CC)CC)cc1 | -1 | -4 | 1.4 | 3 | 3.6 | -2 | i | . | -0.6 | 8
O=C1CSC(c2ccc(Cl)c(Cl)c2)N1c1nccs1 (stereo not drawn) | -45 | -71 | -14 | . | 0.5 | -10 | i | . | . | .
O=C(N/N=C/C=C/c1ccc([N+](=O)[O-])cc1)c1cccs1 | . | . | . | 2 | . | -12 | . | -5 | -48 | 10
Cc1occc1C(=O)Nc1ccc2ccccc2c1 | . | . | . | 4 | . | -8 | . | -9 | -1.0 | -17
CN(C)/C=C1\SC(=S)N(N2C(=O)C3C4C=CC(C4)C3C2=O)C1=O (stereo not drawn) | 9 | -5 | 1.2 | -4 | -0.4 | 1 | i | 0 | 1.1 | -4
Cc1ccc(Nc2nc(C(=O)NCCCN3CCOCC3)cs2)cc1 | . | . | . | 1 | . | 1 | . | 19 | -2.3 | 10
C=CCNCCOCCOc1ccc(C)cc1Br | . | . | . | 4 | . | -4 | . | -2 | 1.3 | 56*
O=S(=O)(c1cccc(F)c1)N1CCc2sccc2C1c1ccc(OC(F)(F)F)cc1 (stereo not drawn) | -2 | 4 | 4.7 | 1 | -2.0 | 1 | i | -5 | -0.9 | 43
CCN(CC(=O)Nc1ccc2c(c1)OCCO2)C(=O)/C=C/c1ccccc1 | 5 | -9 | -3.2 | 8 | -3.7 | -3 | i | 24 | -1.4 | -2
N#CCSc1nnc(-c2cccnc2)n1-c1ccccc1 | . | . | . | 0 | . | 1 | . | 4 | 1.1 | -3
SMILES | Ecoli rRNA inh | Ecoli rRNA inh OD600 | Ecoli rRNA inh RFP | Calb FLC | AF4-AF9 inh | Beta apoptosis | FGF22 binding | ALR H2O2 inh | RanGTP-Impb inh | T cruzi repl
Cc1cc(C)nc(OC(C(=O)O)C(OCCc2ccccc2)(c2ccccc2)c2ccccc2)n1 (stereo not drawn) | 2 | 7 | -1.2 | 27 | 4.1 | 0 | i | -21 | -3.2 | -18
Cc1ccc(C)n1NC(=O)c1ccc(Cl)cc1Cl | . | . | . | -2 | . | 1 | . | -1 | 1.1 | -18
Cc1ccc2c(Cl)cc(Cl)c(OCC(=O)NC3CCS(=O)(=O)C3)c2n1 (stereo not drawn) | -40 | -50 | -9.7 | -5 | -0.2 | 1 | i | -7 | -4.2 | -22
CC(=O)N1CCN(S(=O)(=O)c2cccc(C(=O)Nc3ccccc3N3CCOCC3)c2)CC1 | 12 | 12 | 0.4 | -12 | 1.3 | 6 | i | -29 | -4.6 | -2
COC(=O)C1(NC(=O)NC2CCCCC2)CCCCC1 | 5 | 9 | -1.6 | 9 | -2.7 | 3 | i | -2 | -1.8 | -1
CNC(=O)C1CC(=O)N(Cc2ccccc2)C(=Nc2ccc(OC)cc2)S1 (stereo not drawn) | . | . | . | -6 | . | 1 | . | -4 | 1.3 | 0
NC(=O)CSc1nc(C2CC2)nc2sc3c(c12)CCCC3 | 11 | 8 | -5.1 | -18 | 0.4 | -2 | i | -4 | -3.3 | -6
CC(=O)N1CCc2ccc(S(=O)(=O)N3CCN(C)CC3)cc21 | . | . | . | 5 | . | 2 | . | 16 | 3.2 | -3
COc1ccc(CCN2C(=O)c3[nH]nc(-c4ccccc4O)c3C2c2cccc(O)c2)cc1OC (stereo not drawn) | . | . | . | 7 | . | 12 | . | 13 | 4.2 | 0
O=S(=O)(c1ccc(Cl)s1)N1CCNCC1 | 6 | 10 | -2.6 | . | 0.7 | -3 | i | -7 | . | .
CC(=O)c1ccc(NC(=O)c2cc(S(=O)(=O)N3CCOCC3)ccc2C)cc1 | 7 | 3 | 2.8 | 4 | -2.2 | . | i | -16 | 1.2 | -4
Cc1cc(C)c(C#N)c(N2CCSCC2)n1 | . | . | . | 14 | . | -7 | . | -1 | 7.8 | 10
Cc1ccc(C)c(C(=O)CCC(=O)NCc2ccc(Cl)cc2)c1 | -16 | -10 | -1.8 | 4 | -2.5 | 0 | . | -6 | -2.7 | -4
COCCNC(=O)/C(C#N)=C\c1ccc(CNS(=O)(=O)c2ccccc2)o1 | 19 | 6 | 5.3 | 19 | -0.1 | 1 | i | -2 | 2.7 | -8
O=C(CCC(=O)N1CCOc2ccccc21)NCCCN1CCOCC1 | 14 | 10 | 0.5 | 22 | 1.1 | -1 | i | -1 | 7.2 | -1
COc1ccc(C(=O)Nc2ccc(N3CCN(C(=O)c4ccccc4C)CC3)cc2)cc1 | 10 | 8 | 2.2 | -7 | -1.4 | 0 | i | 11 | 4.5 | 7
COC(=O)Cc1cc(=O)[nH]c(/N=C(\N)Nc2ccc(C)cc2)n1 | 12 | 9 | -8.3 | 42 | 3.6 | 6 | i | -4 | 4.4 | -18
CN(C)CCCNC(=S)N1CCN(c2nc(-c3ccccc3)cs2)CC1 | -1 | -3 | 1.6 | 2 | 5.2 | . | i | 24 | 0.4 | 34
CCc1ccc(C(=O)COC(=O)CNC(=O)CNS(=O)(=O)c2ccccc2)cc1 | . | . | . | 6 | -0.1 | -7 | i | -3 | -1.5 | -15
O=C(NNc1ccccn1)C(c1ccccc1)c1ccccc1 | 1 | -3 | -2.4 | 1 | 1.7 | 0 | i | -4 | -6.7 | 7
Cc1sc2ncnc(SCC(=O)N3CCCC3=O)c2c1C | . | . | . | -2 | . | -3 | . | -21 | 3.8 | -6
CCOc1ccccc1N(CC(=O)NCC1CCCO1)C(=O)CCC(=O)Nc1cc(C)on1 (stereo not drawn) | -2 | 1 | -1.3 | -1 | -0.4 | -1 | i | -3 | 4.1 | 0
Cc1cc(C)c(S(=O)(=O)NCCCn2ccnc2)cc1C | 6 | 10 | 0.7 | 2 | 6.2 | 0 | i | 1 | -0.1 | 9
O=C(OC1CCOC1=O)c1cncc(Br)c1 (stereo not drawn) | . | . | . | -1 | . | -7 | . | 6 | 0.6 | -6
CNC(=S)NNC(=O)CSCc1c(Cl)cccc1Cl | -21* | -6.0* | -1.9* | -2 | -0.4 | -7 | i | 24 | ? | 36
SMILES | Ecoli rRNA inh | Ecoli rRNA inh OD600 | Ecoli rRNA inh RFP | Calb FLC | AF4-AF9 inh | Beta apoptosis | FGF22 binding | ALR H2O2 inh | RanGTP-Impb inh | T cruzi repl
Cc1ccc(S(=O)(=O)N2CCOCC2)cc1NC(=O)COC(=O)CCC(=O)c1cccs1 | . | . | . | 9 | . | -2 | . | . | 6.2 | -1
Cc1cc(C(=O)NNc2c(Cl)cccc2Cl)n(C(C)(C)C)n1 | -7 | -5 | -2.8 | -13 | -0.6 | -2 | i | 70 | 5.4 | -9
CCOc1ccc(OCCC(=O)N(CC(=O)Nc2ccccc2C(F)(F)F)Cc2ccco2)cc1 | 2 | 10 | 6.7 | 6 | -4.1 | 0 | i | 5 | 3.9 | -7
COc1ccccc1NC(=S)N(Cc1ccco1)Cc1cc2cc(C)cc(C)c2[nH]c1=O | -13 | -7 | 14 | -14 | 6.4 | 4 | i | -5 | -5.8 | 7
Oc1c(Cl)cc(Cl)cc1/C=C/c1ccc2cccc(O)c2n1 | -56 | -77 | -20 | 0 | -1.2 | 17 | i | -9 | -141 | -41
COc1ccc(C(=O)NNC(=O)Cc2ccc(Cl)cc2)cc1 | 0 | 2 | -1.4 | -2 | -0.8 | -4 | i | 8 | -0.6 | -1
C=CCN(CC=C)S(=O)(=O)c1ccc(NC(=S)NC(=O)/C=C/c2ccccc2)cc1 | . | . | . | 4 | . | 6 | . | -4 | 3.7 | -2
CCOC(=O)/C(=N/Nc1ccccc1)c1csc(Nc2ccccc2)n1 | . | . | . | -27 | . | 16 | . | -6 | 1.3 | 62*
NC(=O)C1CCN(c2ncnc3c2c(-c2ccccc2)cn3-c2ccccc2)CC1 | -25 | -18 | -3.6 | 5 | 11 | -8 | i | -2 | 1.5 | 3
O=C(CCN1C(=O)S/C(=C\c2ccccc2)C1=O)Nc1ccc(S(=O)(=O)Nc2nccs2)cc1 | . | . | . | -11 | . | -4 | . | 29 | -3.6 | -6
Cc1nc(C(=O)N(C)C)nn1-c1ccc(Cl)cc1Cl | . | . | . | -1 | . | 0 | . | 4 | 0.1 | -5
CCc1ccc(NC(=O)Cn2cccc2)cc1 | 3 | 2 | -1.7 | -17 | 1.1 | -1 | i | . | 1.0 | -25
Cc1ccc(Cl)cc1N1CCN(C(=O)CCS(=O)(=O)c2ccc3c(c2)NC(=O)CO3)CC1 | -30 | -35 | -3.5 | -1 | 3.2 | 5 | i | 2 | -0.4 | 15
Cc1nnc(SCC(=O)Nc2sccc2C#N)s1 | 7 | 9 | 0.7 | 14 | 1.5 | -2 | i | -2 | -0.8 | -10
O=C(COC(=O)Cc1ccccc1F)NCCNC(=O)COC(=O)Cc1ccccc1F | -2 | -4 | -2.1 | 3 | 1.8 | 8 | i | 12 | 0.8 | -1
CC(C)(C)CC(=O)Nc1cc2c3c(c1)CCC(=O)N3CCC2 | -2 | 2 | -1.4 | 11 | -1.1 | 1 | i | -2 | 0.3 | -4

Screening results: PubChem, Broad Institute

A portion of the library; the hit share may differ from the screen's.
